# Ab BasE inh = BasE siderophore enzyme inhibitors, primary screen, biochemical, Acinetobacter baumannii ATCC 17978, fluorescence polarization; purified BasE, fluorescence polarization binding displacement; inhibition, % (concentration not given with the values); 0.1% of 84,000 active;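 active = both replicates above 25% with normal brightness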;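 also: 0% = negative plate control signal and 100% = positive plate control signal; stock transfer was 100 nL into about 30 µL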
# LANA-nucl inh = inhibitors of KSHV LANA-nucleosome binding, primary screen, biochemical, fluorescence polarization, FITC-LANA1-23, chicken nucleosomes | AID 720717, 2013 | z-score (test concentration not listed) | 0.3% of 51,000 active | FITC-LANA1-23 / chicken nucleosome fluorescence polarization; stronger effect = lower value;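 active = both repeat wells score below -2 in polarization z-score versus plate sample wells, excluding overly bright wells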;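 also: 100 nL library stock added to about 30 µL; numbers are from one replicate; some results filed as inactive read as strong as hits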
#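 Test system: purified chicken nucleosomes with FITC-labelled LANA N-terminal peptide (1-23); Input: 240 nM purified chicken nucleosomes (480 nM peptide binding sites), final; Medium: TEN-BT buffer, pH 7.5; Timing: 10–45 min, room temperature; Technique: fluorescence polarization, 480 nm excitation, 535 nm parallel and perpendicular emission; Replication: duplicates.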
# Active calls of the source: *; nt = no result given; & = joins results of further samples.
SMILES,Ab BasE inh,LANA-nucl inh
NCCSc1sc(=S)sc1SCCN,-2.0,-0.272
CCOC(=O)N1CCC(NC(=O)c2cnc3n(c2=O)CCS3)CC1,-1.0,-0.717
CC1=C(c2ccc(C)c(C)c2)S(=O)(=O)NC1=NCC(=O)NCc1ccc(C)o1,-29.9,3.85
Cc1csc(SCC(=O)N(C)Cc2ccc(F)cc2)n1,-0.3,nt
Cc1cc(C(=O)CSc2nncs2)c(C)n1-c1ccc(F)cc1,1.1,nt
CC(C)C(=O)N(c1ccc2oc(=O)sc2c1)S(=O)(=O)c1cccs1,3.1,-0.495
CCOC(=O)C(c1ccc(Cl)cc1)N1CCNCC1 (stereo not given),0.1,nt
COC(F)(C(=O)NCCc1cccn1C)C(F)(F)F (stereo not given),1.2,0.544
CCN(Cc1nc2cc(OC)c(OC)cc2c(=O)[nH]1)Cc1cc(=O)oc2c(C)c(C)ccc12,-1.6,nt
O=C(O)CN(c1cccc(C(F)(F)F)c1)S(=O)(=O)c1ccccc1,2.5,-0.149
CNc1nc(-c2ccc3c(c2)CCN3S(=O)(=O)c2ccccc2)cs1,-4.7,1.46
O=C(Cc1ccc(S(=O)(=O)N2CCCCC2)s1)OCc1csc(Nc2ccccc2)n1,1.2,nt
CCC1Sc2ccccc2N(CC(=O)N(C(C)C)C(C)C)C1=O (stereo not given),-1.8,-0.833
O=C(CN1C(=O)c2ccccc2S1(=O)=O)c1ccc(O)c(O)c1,12.7,nt
CC(=O)Nc1ccc(N=Cc2ccccc2)cc1,-0.6,nt
CC(C)(C)NC(=O)c1cccc(C(=O)NC(C)(C)C)c1,-4.4,2.57
COCC(C)n1c(-c2ccc3c(c2)NC(=O)CO3)csc1=Nc1ccc(OC(F)F)cc1 (stereo not given),3.5,nt
Cn1cnnc1SCCOc1ccc(Cl)cc1,1.0,-0.62
O=C1CCCN1c1ccc(C(F)(F)F)cc1,nt,1.57
NC(=O)c1cc2ccccc2o/c1=N\NC(=O)c1ccc(F)cc1,-0.9,0.684
COc1cc(-c2nnc(SCc3nc4scc(-c5ccccc5)c4c(=O)[nH]3)o2)cc(OC)c1OC,-0.7,nt
CNC(=O)c1sc(NCC(C)C)nc1C,-0.2,nt
O=C(NCCN1CCCc2ccccc21)Nc1ccc(Br)cc1F,-0.8,0.673
CC(NCCOc1ccccc1F)C(=O)Nc1ccc(S(N)(=O)=O)cc1 (stereo not given),-0.1,nt
O=C(/C=C/Nc1cccc(C(F)(F)F)c1)c1ccco1,2.8,-1.49

# (further entries)
SMILES,Ab BasE inh,LANA-nucl inh
Cc1sc2ncnc(OCC(N)=O)c2c1C,-0.7,nt
CN1CCN(CC(=O)N2CCc3ccccc32)CC1,nt,1.15
O=C(Nn1cnc2ccccc2c1=O)c1cccc(Cl)c1,-3.5,-0.032
Cc1ccc(NC(=O)CCN2C(=O)c3ccccc3S2(=O)=O)cc1C,-1.8,nt
O=C1c2ccccc2-c2cc(=O)[nH]c3cccc1c23,8.6,nt
O=C(O)c1coc(COCC(F)(F)F)c1,3.9,-0.126
CN(C)C(=O)COC(=O)c1ccc2c(c1)OCO2,-1.1,nt
CCCCNC(N)=S,0.6,nt
OC1CCCCC1N1CCNCC1 (stereo not given),6.6,-0.054
C=CCn1c(C)c(/C=C/C2=CCN(C)CC2)c2ccccc21,-20.2,-10.3
C=CCn1c(NC(=O)/C=C/c2ccccc2)c(C#N)c2nc3ccccc3nc21,1.9,nt
COc1ccccc1N1CCN(CC(=O)Nc2ccc3[nH]c(=O)[nH]c3c2)CC1,1.1,nt
Cc1ccc(NC(=O)COC(=O)C2(CC(=O)NC(C)C)CCCC2)cc1C,1.5,nt
O=C(CSc1nnc(-c2c[nH]c3ccccc23)o1)NCC1CN(Cc2ccccc2)CCO1 (stereo not given),0.0,nt
CCn1c(-c2nonc2N)nc2ccccc21,-3.8,nt
O=c1c(=O)n2c(nn1Cc1ccc(F)cc1)sc1ccccc12,-4.0,nt
CCOC(=O)N1CCC(NC2C3CC4CC(C3)CC2C4)CC1 (stereo not given),-3.3,0.561
COc1ccc2cc(CNC3CCCCC3)c(=O)[nH]c2c1,-5.0,1.11
O=C(O)c1ccccc1C(=O)n1ccnc1-c1ccccc1,-0.1,0.167
CS(=O)(=O)NCC(c1cccs1)S(=O)(=O)c1ccccc1 (stereo not given),1.8,-1.51
O=C(OCc1ccc2c(c1)OCO2)c1cccc(S(=O)(=O)N2CCCC2)c1,0.5,-0.445
COc1cccc(C(c2nnnn2CCC(C)C)N2CCN(c3cccc(C)c3C)CC2)c1OC (stereo not given),-0.9,-0.696
CC(C)NS(=O)(=O)c1ccc(OCC(=O)N(C)Cc2ccccc2)cc1,-0.9,-0.837
CC1CCCCN1C(=O)/C=C/c1ccccc1 (stereo not given),-0.5,-0.831
CC(C)[C@H](NS(=O)(=O)c1ccc2c(c1)OCCO2)C(=O)Nc1ccccc1,2.0,nt

# 3 successive records out of the list so far, for reference:
SMILES,Ab BasE inh,LANA-nucl inh
C=CCn1c(NC(=O)/C=C/c2ccccc2)c(C#N)c2nc3ccccc3nc21,1.9,nt
COc1ccccc1N1CCN(CC(=O)Nc2ccc3[nH]c(=O)[nH]c3c2)CC1,1.1,nt
Cc1ccc(NC(=O)COC(=O)C2(CC(=O)NC(C)C)CCCC2)cc1C,1.5,nt

# A draw from above in order of count of non-hydrogen atoms, rising.
SMILES,Ab BasE inh,LANA-nucl inh
CCCCNC(N)=S,0.6,nt
CCn1c(-c2nonc2N)nc2ccccc21,-3.8,nt
CN(C)C(=O)COC(=O)c1ccc2c(c1)OCO2,-1.1,nt
O=C1c2ccccc2-c2cc(=O)[nH]c3cccc1c23,8.6,nt
O=c1c(=O)n2c(nn1Cc1ccc(F)cc1)sc1ccccc12,-4.0,nt
C=CCn1c(NC(=O)/C=C/c2ccccc2)c(C#N)c2nc3ccccc3nc21,1.9,nt

# (more compounds)
SMILES,Ab BasE inh,LANA-nucl inh
CC(=O)N(c1ccccc1)C(C)C1CC1 (stereo not given),1.0,nt
CN(C)c1nc(N)c(C#N)c(CC#N)c1C#N,0.2,nt
CC(=O)Nc1ccc(NC(=O)COCC(=O)O)cc1,0.3,0.477
Cc1csc(SCc2ccccc2C(=O)O)n1,0.6,nt
COc1ccc2c(c1)CCc1c(C(=O)NC(C)c3ccccc3)noc1-2 (stereo not given),-1.8,-0.106
CCOC(=O)c1c(C)[nH]c(C(=O)Nc2ccc(C)cc2)c1C,0.0,nt
Cc1onc(-c2ccccc2Cl)c1C(=O)c1ccccc1,-0.6,-0.314
O=C1c2ccccc2NC(c2ccc(O)cc2)N1c1ccccc1 (stereo not given),0.7,0.567
CCC(C)(CC(=O)O)CC(=O)Nc1ccc(NC(C)=O)cc1 (stereo not given),0.5,nt
CCCN1C(=O)/C(=C/c2ccc(-c3ccc(Br)cc3)o2)NC1=S,-0.5,0.907
CN1/C(=C\C=N\NC(=O)CCN2CCCCC2)C(C)(C)c2ccccc21,0.8,nt
Nc1cc(=O)[nH]c(SCC(=O)Nc2ccc(S(=O)(=O)N3CCCC3)cc2)n1,1.3,nt
Nc1ccccc1C(=O)NC1CCCCNC1=O (stereo not given),1.3,nt
COc1ccc(-c2nc(N)n(C(=O)CCc3ccccc3)n2)cc1,-1.3,nt
O=C(c1cnc2n(c1=O)CCS2)N(C1CCCCC1)C1CCCCC1,0.8,-0.41
Cc1cc(N/C=C2/CCCCC2=O)no1,0.8,nt
COc1ccc(C(=O)Nc2ccc(S(=O)(=O)N3CCCCC3c3cccnc3)cc2)cc1OC (stereo not given),0.4,-0.413
Cn1c(CCC(=O)OCC(=O)N2CCN(S(=O)(=O)c3ccc(Cl)cc3)CC2)nc(=O)c2ccccc21,0.5,nt
COc1ccc(NS(=O)(=O)c2ccc3oc(Nc4ccc(C)c(F)c4)nc3c2)cc1,-0.6,nt
CCCCCC[N+]1(CCO)CCOCC1,3.4,-0.0955
COC(=O)c1ccc(C(=O)OC)c(N2C(=O)CSCC2=O)c1,-0.2,-0.274
Cc1oc(-c2cc(Cl)ccc2Cl)cc1C(=O)O,-0.4,nt
Cn1c(CSc2cc(C(F)(F)F)nc3ccccc23)nnc1SCC(=O)c1ccccc1,-2.1,nt
CCN(c1ccccc1)S(=O)(=O)c1ccc(N2CCc3ccccc3C2)nc1,3.8,nt
O=C(NCCC(=O)N1CCN(c2ccccn2)CC1)Nc1ccccc1,1.9,nt

# Other records follow.
SMILES,Ab BasE inh,LANA-nucl inh
CCOC(=O)c1nc(N2CCC3(CC2)OCCO3)c2ccccc2n1,2.0,0.245
Cc1ccc(C(=O)N2CCCCC2)cc1,-0.1,nt
Cc1noc(C)c1CSc1ccccc1C(=O)OC(C)C(=O)N1CCOCC1 (stereo not given),1.2,nt
COc1cccc(C2NC(=O)NC(C)=C2C(=O)Nc2cccc(Cl)c2)c1OC (stereo not given),-0.2,1.47
CCc1ccc(N2C(=O)N(CC(N)=O)C3CS(=O)(=O)CC32)cc1 (stereo not given),-0.5,nt
CCN(CC)c1ncc(C(=S)N=P(N(C)C)(N(C)C)N(C)C)s1,2.3,nt
COc1cc(/C=N/n2c(C)nnc2C)cc(OC)c1O,22.2,nt
CC1=NN(C(=O)c2ccccc2)C(O)(C(F)(F)F)C1 (stereo not given),3.5,nt
Cc1nc(S(=O)(=O)NC2CCS(=O)(=O)C2)cn1C (stereo not given),4.3,nt
COc1ccccc1NCc1cccn1-c1nnc(N2CCCC2)s1,1.1,nt
CN(C(=O)CSc1ncnc2sccc12)C1CCCCC1,-1.5,nt
Cn1c(NCCCO)nc2c(c1=O)C1(CCCCC1)Cc1ccccc1-2,1.1,-0.978
COc1ccc(Br)cc1/C=C/C(=O)O,3.8,nt
COC(=O)c1sc(N)c(C(=O)OC)c1CC#N,-0.5,nt
CC1=C(C(=O)NCCN(C)C)C2(CCN(Cc3ccccc3)CC2)OC1=O,-1.4,-0.305
CO/N=C/c1ccc(OC)c(OC)c1,-1.1,-0.122
N#C/C(=C\c1ccccc1)C(=O)C1CC1,1.7,0.673
S=c1[nH]nc(-c2ccncc2)n1CCc1ccccc1,-0.1&3.0,-0.122&0.482
CC(Oc1ccccc1F)C(=O)N(C)Cc1ccccc1 (stereo not given),4.5,-0.169
O=C(c1cccs1)N(Cc1ccco1)c1ccc(O)cc1,-0.9,2.95
Cc1ccc(/C=N/NC(=O)CCn2nc(C)cc2C)c(C)c1,0.4,nt
COc1ccc(OC)c(NC(=O)c2cnc3sccn3c2=O)c1,1.5,-0.781
COc1ccc(C#N)cc1OC,-2.1,nt
COc1cccc2sc(N(CCN(C)C)C(C)=O)nc12,-0.4,-0.739
N#Cc1cc(C#N)c(=S)[nH]c1N,3.4,nt

# Molecules above containing bromine (three):
SMILES,Ab BasE inh,LANA-nucl inh
O=C(NCCN1CCCc2ccccc21)Nc1ccc(Br)cc1F,-0.8,0.673
CCCN1C(=O)/C(=C/c2ccc(-c3ccc(Br)cc3)o2)NC1=S,-0.5,0.907
COc1ccc(Br)cc1/C=C/C(=O)O,3.8,nt

# (listing goes on)
SMILES,Ab BasE inh,LANA-nucl inh
CC(C)(C)CC(=O)NN1C(=O)c2cccc3cccc(c23)C1=O,-2.5,nt
COc1ccccc1C(=O)Nc1ccc(S(=O)(=O)NC(C)C)cc1,0.2,-1.23
Cc1ccc(NC(=O)COc2cccc3c2CCN(Cc2cccnc2)C3=O)c(C)c1,-0.4,-1.46
CC1CN=C(N(C(=O)Nc2ccc(Cl)cc2)C(C)c2ccccc2)S1 (stereo not given),2.6,nt
CCc1ccc(NC(=O)C2CC3CCCN3C23C(=O)Nc2ccccc23)cc1 (stereo not given),-0.6,-0.157
O=NC1=C(c2c(O)[nH]c3ccccc23)CCCC1,2.3,-0.394
O=C(OCc1cc(=O)oc2cc(O)ccc12)c1cc(Br)ccc1O,-0.4,nt
COc1ccc2c(CC(=O)Oc3ccc(-c4ccc(C#N)cc4)cc3)coc2c1,2.5,nt
Cc1n[nH]c(C)c1CCCOc1ccccc1,3.3,nt
CC12CCC(C(=O)Nc3ccccc3)(OC1=O)C2(C)C (stereo not given),1.0,-0.208
CCc1ccccc1NC(=O)N1CCC(NC(=O)C(Cc2ccccc2)NC(C)=O)CC1 (stereo not given),0.4,0.253
COc1cccc(CNC(C)C23CC4CC(CC(C4)C2)C3)c1OCc1cccs1 (stereo not given),1.7,nt
CCOC(=O)N1CCN(C(=O)C2CC(c3ccc(OC)c(OC)c3)=NO2)CC1 (stereo not given),-1.7,-0.968
C/C(=N\N=C1/NC(=O)C(CC(=O)O)S1)c1ccc(C)o1 (stereo not given),-3.4,1.52
CC(Sc1nnc(N)s1)C(=O)N1N=C(c2ccc(Cl)cc2)CC1c1ccco1 (stereo not given),0.0,nt
CC(=C\c1ccccc1)/C=C1/SC(=S)N(C2CCCCC2)C1=O,1.8,nt
CC1CCN(CCCNC(=O)Cn2ncc3c([nH]c4ccccc43)c2=O)CC1,-3.8,0.489
CCC1CSC(Nc2ccccc2OC)=N1 (stereo not given),0.2,nt
Cc1cc(OC(C)C(=O)O)cc(C)c1Cl (stereo not given),0.7,0.118
Cc1nn2cnnc2c(C)c1CCC(=O)N1CCCC1,0.8,-0.028
O=C(N=Nc1c(O)[nH]c2cc3c(cc12)OCCCO3)C1CCCCC1,2.6,nt
CCOC(=O)C1=CN(O)/C(=C\N=O)C=C1,2.1,0.422
CCc1ccc(NC(=O)Nc2ccc3nc(N4CCN(C)CC4)cc(C)c3c2)cc1,-0.9,nt
CN(C)/C=C1\N=C(c2cccnc2Sc2ccc(Cl)cc2)OC1=O,nt,0.313
COC(=O)C1=CN(C2CC2)C=C(C(=O)OC)C1c1ccc(OC(F)(F)F)cc1,-0.4,0.22

# Screens: PubChem, ICCB-Longwood Screening Facility, Harvard Medical School

# An excerpt (hit frequency here may not be typical).
